Assay outcomes (PubChem BioAssay)
Autofluor counter: compound fluorescence in toxin protease inhibitor counterscreen. fluorescence intensity (no concentration beside the values). 360,000 tested, 3.1% active. compound autofluorescence counterscreen, microsphere flow cytometry; active compounds read high;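 active = at least 3 SD above the mean of all compounds, about 16000 in these data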;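 also: 100 nL of 1 mM stock went into each well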
PrP 5UTR inh: inhibition of PrP 5' UTR reporter expression; cell-based PrP 5' UTR mRNA reporter, plate reader; inhibition, % (no concentration beside the values); 340,000 tested, 0.35% active;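 active = every replicate at 50% or more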;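 also: 0 = median of the neutral control wells; tested in H4 reporter cells; numbers are from one replicate; inactives centre near -14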
* hit, by the source's call. Some of the compounds tested. The share of hits here may be higher or lower than overall.

SMILES | Autofluor counter | PrP 5UTR inh
CC1CC(C)(O)CC(C(O)CC2CC(=O)NC(=O)C2)C1=O (configuration not stated) | 3435 | 63.9*
CC1CCC(CN2C(Nc3ccccc3)=NC[C@@H]2Cc2ccccc2)CC1 (some centres not stated) | 3128 | -4.8
COc1cc(F)cc(C2=CC(=O)C[C@H](c3ccc(F)cc3)C2)c1 | 3474 | -19.6
C[C@@]12C(=O)N(c3cccc(F)c3)C(=O)N1[C@@H]1c3ccccc3OC[C@@H]1[C@H]2c1ccccc1 | 3883 | -21.2
Cc1noc(C)c1S(=O)(=O)N(C)C[C@H]1Oc2ccc(NC(=O)NC3CCCCC3)cc2C(=O)N([C@H](C)CO)C[C@@H]1C | 3919 | -8.1
COC(=O)C1=C(c2ccc(F)cc2OCc2ccccc2)C[C@@H]2CC[C@H]1N2C(=O)NC1CC1 | 2750 | -4.0
CC(=O)Nc1c(Br)cc2c(c1Br)C(=O)c1ccccc1-2 | 3843 | -13.5
CC(Nc1ccc2ccccc2c1)C(=O)N/N=C/c1ccncc1 (configuration not stated) | 3969 | -15.1
O=C(N/N=C/c1ccncc1)c1ccncc1 | 2837 | -7.0
N#Cc1c(-c2ccc(Cl)cc2)c(-c2ccc(Cl)cc2)nn(CCOC(=O)CCC(=O)O)c1=O | 4110 | -15.4
COC(=O)C1=C(C)N(Cc2ccccc2)C(=NCCc2c[nH]c3ccccc23)N[C@H]1c1ccccc1 | 5408 | 0.7
CC(=O)N1c2ccccc2[C@H](C)[C@H]1C | 3552 | -22.0
Cc1c(C=NNc2ccccc2)[nH]c(=O)[nH]c1=O | 3516 | -3.2
CC(C)(C)OC(=O)N1CCC(C(=O)Nc2ccc(C(=O)N3CCCC3)cc2)CC1 | 3908 | -20.3
CC[C@H]1CCCCc2ccccc2[C@@H](C(=O)C[C@@H](O)CC(C)=O)OC1=O | 3783 | 2.7
CC(C)(C)c1cc(C2COC(=O)COCCOCC(=O)OCCOCCO2)cc(C(C)(C)C)c1O (configuration not stated) | 3087 | -2.0
Cc1ccc(S(=O)(=O)n2cc(CO)c3ccccc32)cc1 | 3527 | -21.3
Fc1ccc(C2=CC(c3ccc(Br)o3)n3ncnc3N2)cc1 (configuration not stated) | 2535 | -3.2
COc1ccc(C)cc1NC(=O)C1CCCN1S(=O)(=O)c1ccccc1F (configuration not stated) | 4236 | -5.2
O=C(Nc1c(Br)cc2c(c1Br)Cc1cc([N+](=O)[O-])ccc1-2)C(Cl)Cl | 3332 | -11.0
COc1cccc(C2c3cc4c(cc3OC(N3CCOCC3)C2C)OCO4)c1O (configuration not stated) | 3765 | -25.7
COc1cc(NC(=O)c2ccc(S(=O)(=O)N(C)c3ccccc3)cc2)cc(OC)c1 | 5708 | -9.7
Cc1noc(C)c1NC(=O)N(C)C[C@H]1Oc2c(NS(=O)(=O)c3cn(C)cn3)cccc2C(=O)N([C@H](C)CO)C[C@@H]1C | 3091 | -9.5
O=[N+]([O-])c1ccc(COc2ccccc2CN2CCCC2)cc1 | 3952 | -18.4
CCCN1C/C(=C/c2cccc([N+](=O)[O-])c2)C(=O)/C(=C/c2cccc([N+](=O)[O-])c2)C1 | 4742 | -39.5
COc1ccccc1NC(=O)N(O)C1(C#N)CCCCC1 | 3325 | -18.8
CCCNC(=O)N1[C@H]2CC[C@@H]1C(C(=O)OC)=C(c1cccc(Cl)c1)C2 | 4337 | -21.9
Cc1cc(C(=O)N/N=C2\CCCC(=O)C2)c(C)o1 | 4540 | -17.7
C[C@H](CO)N1C[C@H](C)[C@@H](CN(C)S(=O)(=O)c2ccccc2)Oc2ccc(NC(=O)CCN3CCOCC3)cc2C1=O | 2864 | -6.5
C[N+](C)(C)CC1CCCc2ccccc2C1=O (configuration not stated) | 3674 | -14.4
CC(C)(C)[C@H]1COC(=O)CCC/C=C/C[C@H](CC(=O)N(CCO)Cc2ccccc2)C(=O)N1 | 2938 | -3.5
CCCc1nnn(S(=O)(=O)c2ccc([N+](=O)[O-])cc2)c1CCC | 3699 | -8.7
C=CC[C@@H](CC(=O)NCCO)C(=O)NC[C@H](OC(=O)[C@@H](CC=C)CC(=O)OC(C)(C)C)c1ccccc1 | 3855 | -24.2
Cc1ccccc1OCC(=O)N/N=C/c1ccc(N2CCOCC2)o1 | 6219 | 3.0
CC(C)(C)OC(=O)N(CCc1ccccc1)Cc1ccccc1OCc1cccc(NC(=O)C2CCC2)c1 | 2982 | 0.0
COc1ccc([C@@H]2CC=C(C(=O)O)[C@H](c3ccc(Cl)cc3)N2S(=O)(=O)c2ccc(C)cc2)cc1OC | 3683 | -20.5
CC(=O)OC[C@H]1O[C@@H](Oc2cc3ccc(=O)oc3cc2OC(C)=O)[C@H](OC(C)=O)[C@@H](OC(C)=O)[C@@H]1OC(C)=O | 3915 | -30.0
CC(=O)CCC(C)=O | 5672 | -18.4
CC(=O)C[C@H](O)CC(=O)[C@@H]1OC(=O)CCCCCCCCc2ccccc21 | 4448 | -21.2
CN(C)/C=N/C1=C(C#N)C(c2cccs2)c2ccc3ccccc3c2O1 (configuration not stated) | 4201 | -119.2

A different layout for 2 compounds above.
mol,Autofluor counter,PrP 5UTR inh
C[N+](C)(C)CC1CCCc2ccccc2C1=O (configuration not stated),3674,-14.4
CC(C)(C)[C@H]1COC(=O)CCC/C=C/C[C@H](CC(=O)N(CCO)Cc2ccccc2)C(=O)N1,2938,-3.5

Continuation.
SMILES | Autofluor counter | PrP 5UTR inh
Cc1c2cnccc2c(C)c2c1oc1ccccc12 | 3344 | -9.4
Cc1cc(C)cc(-c2nnc(SCC(=O)NCC3CCCO3)o2)c1 (configuration not stated) | 2931 | 11.3
CC1(C)C(=O)C=CC(=O)C(C)(C)C(=O)C=CC(=O)C(C)(C)C2=CC=C(O2)C(C)(C)C(=O)C=CC1=O | 3779 | -26.9
O=C1N[C@@H](Cc2ccccc2)COC(=O)[C@@H](Cc2ccc(F)cc2)C/C=C\C[C@@H]1CC(=O)N(CCO)Cc1ccccc1 | 2971 | -25.1
COC(=O)C1=C(c2ccc(Cl)c(C(F)(F)F)c2)C[C@@H]2CC[C@H]1N2C(=O)NCC1CC1 | 4099 | -14.9
CC(C)N(C(=O)CCl)c1ccccc1 | 7618 | -38.2
COc1cc(OC)c2c(-c3cccc(-c4ccc(OC(F)(F)F)cc4)c3)cc(=O)oc2c1 | 3673 | -28.1
C=CC[C@H](CC(=O)NCCO)C(=O)N[C@H](COC(=O)[C@H](CC=C)CC(=O)OC(C)(C)C)c1ccccc1 | 3217 | -11.9
C[C@H]1C(=O)O[C@@H]2CCN3CC=C(COC(=O)[C@](C)(O)[C@]1(C)O)[C@H]23 | 7961 | -9.6
O=C(NN1CCCCCC1)c1ccccc1F | 3633 | -32.7
COc1ccc([C@H]2CC(=O)C=C(C#CC(C)(C)C)C2)cc1 | 4203 | -17.9
COc1ccc2c(c1)[C@@H]1[C@H](CO2)[C@H](c2ccccc2)[C@]2(C)C(=O)Nc3ccc(C)cc3C(=O)N12 | 3501 | -22.1
O=C(Cc1ccc(NC(=O)C2CCCN(C(=O)c3ccccc3)C2)cc1)Nc1ccc(C(=O)N2CCOCC2)cc1 (configuration not stated) | 3723 | -1.4
O=C1C=C(c2ccc(C(=O)O)cc2)C[C@@H](c2ccc(Cl)cc2)C1 | 3051 | -4.9
COC(=O)[C@H](CCSC)NC(=O)Cn1ccc(NC(=O)OCc2ccccc2)nc1=O | 3868 | -1.9
CCn1nc(C(=O)NNC(=O)c2cc(Cl)ccc2OC)c2ccccc2c1=O | 2895 | -7.4
CCCCN1C[C@H](CO)Oc2cccc(F)c2S1(=O)=O | 2816 | -10.0
COc1ccc(SC[C@H](Cc2ccccc2)N2CC[C@@H](C(C)(C)C)CCC2=O)cc1 | 3956 | 6.6
COc1ccc(S(=O)(=O)N2C[C@H]3CON(C)[C@H]3C[C@H]2c2cccc(Br)c2)cc1 | 3936 | -6.8
Cc1cc2c(c(C)c1CCO[C@@H]1O[C@H](CO)[C@@H](O)[C@H](O)[C@H]1O)C(=O)[C@@H](C)[C@@H]2O | 3961 | -11.0
COCCN(C(=O)COC(=O)CNC(=O)c1ccc(C)cc1)c1c(N)n(Cc2ccccc2)c(=O)[nH]c1=O | 3508 | -19.0
O=C1OC[C@H]2CCCN2C(=O)[C@@H](CC(=O)N(CCO)Cc2ccccc2)C/C=C\CC[C@@H]1Cc1ccc(F)cc1 | 3053 | -35.0
C[n+]1c(-c2ccc(C=NNC(=O)c3ccc(C(=O)NN=Cc4ccc(-c5cn6ccccc6[n+]5C)cc4)cc3)cc2)cn2ccccc21 | 4069 | -30.5
CCn1c2ccccc2c2cc(/C=C(/C#N)C(N)=S)ccc21 | 3900 | -6.9
CCOC(=O)[C@H]1[C@H]2COc3ccc(Br)cc3[C@@H]2N2C(=O)N(c3ccccc3)C(=O)[C@@]12C | 3442 | -11.8
CC(C)(C)OC(=O)N[C@H](/C=C/c1ccccc1)C(=O)OC(C)(C)C | 3772 | -57.2
C[C@@H]1NS(=O)(=O)c2cc(Cl)ccc2O[C@@H]1c1ccccc1 | 3892 | -0.6
COC(=O)C1=C(c2cccc(C#N)c2)C[C@@H]2CC[C@H]1N2C(=O)NCC1CC1 | 2984 | 4.0
O=C1NC[C@@H](c2ccccc2)OC(=O)[C@H](Cc2ccc(F)cc2)C/C=C\C[C@@H]1CC(=O)N(CCO)Cc1ccccc1 | 2848 | -1.9
CC(C)(C)OC(=O)C[C@H]1C/C=C\C[C@H](CC(=O)N(CCO)Cc2ccccc2)C(=O)N[C@H](C(C)(C)C)COC1=O | 3820 | -18.7
CC(C)C[C@H]1C(=O)N2CCC[C@H]2[C@]2(O)O[C@](NC(=O)[C@@H]3C=C4c5cccc6[nH]cc(c56)C[C@H]4N(C)C3)(C(C)C)C(=O)N12 | 3872 | 5.0
COc1cccc(NP2(=O)OCC(C)([N+](=O)[O-])CO2)c1 (configuration not stated) | 2754 | 1.5
NNC(=O)C1C(O)CCC2CN3CCc4c([nH]c5ccccc45)C3CC21 (configuration not stated) | 4514 | -11.8
C=CCC[C@H](Cc1ccc(F)cc1)C(=O)OC[C@@H](C)NC(=O)[C@@H](CC=C)CC(=O)N[C@H](CO)Cc1ccccc1 | 2913 | 3.4
O=C1C=C(O)c2[nH]c(=O)ccc2C1=O | 3781 | 52.4
Cc1ccc(NC(=O)c2ncn(CCCN3CCN(Cc4cccc5ccccc45)CC3)n2)cc1C | 3502 | 2.6
COc1ccc([C@@H]2CC=C(C(=O)O)[C@H](c3ccc(Cl)cc3)N2S(=O)(=O)c2ccccc2C)cc1 | 3710 | 9.3
O=C1N[C@@H](Cc2ccccc2)COC(=O)[C@@H](Cc2ccc(F)cc2)CC/C=C/C[C@@H]1CC(=O)N(CCO)Cc1ccccc1 | 2791 | 38.8
O=C(O)CC1Cc2ccccc2C1C(=O)O (configuration not stated) | 4488 | -5.0
N#CCOc1ccccc1CNC[C@H]1O[C@@H](n2cnc(C(N)=O)n2)[C@H](O)[C@@H]1O | 3312 | -10.8
O=C(Nc1cccc(S(=O)(=O)N2CCOCC2)c1)C1CC(=O)N(c2ccc3c(c2)OCCO3)C1 (configuration not stated) | 3007 | -18.9
Cc1cc(C)c(CN2CCN(CCCn3cnc(C(=O)Nc4ccc(C)c(C)c4)n3)CC2)c(C)c1 | 3865 | -7.5
Nc1nc(=S)c2ncn([C@@H]3O[C@H](CO)[C@@H](O)[C@H]3O)c2[nH]1 | 5677 | 30.0
O=C(COC(=O)c1ccc2c(c1)OCCO2)NC1CCCCC1 | 3044 | -15.9
CC1CCN(C(=O)c2[nH]cnc2C(=O)N[C@@H](C)c2ccccc2)CC1 | 3214 | 4.3
NC(=S)N/N=C\c1c2ccccc2cc2ccccc12 | 10027 | -27.3
O=c1ccn([C@@H]2O[C@H](CNCC3=Cc4cc(O)ccc4OC3)[C@@H](O)[C@H]2O)c(=O)[nH]1 | 3713 | 7.2
O=C(NCCCCc1ccccc1)c1cccc(NC(=O)C2CC2)c1 | 3107 | -22.9
COc1ccc2c(c1)c1c(n2C)[C@@H]2CC=C(CO)[C@@H](C1)N2C | 4344 | -12.6

Filtered by structure: the compounds so far containing fluorine (14)
SMILES | Autofluor counter | PrP 5UTR inh
COc1cc(F)cc(C2=CC(=O)C[C@H](c3ccc(F)cc3)C2)c1 | 3474 | -19.6
C[C@@]12C(=O)N(c3cccc(F)c3)C(=O)N1[C@@H]1c3ccccc3OC[C@@H]1[C@H]2c1ccccc1 | 3883 | -21.2
COC(=O)C1=C(c2ccc(F)cc2OCc2ccccc2)C[C@@H]2CC[C@H]1N2C(=O)NC1CC1 | 2750 | -4.0
Fc1ccc(C2=CC(c3ccc(Br)o3)n3ncnc3N2)cc1 (configuration not stated) | 2535 | -3.2
COc1ccc(C)cc1NC(=O)C1CCCN1S(=O)(=O)c1ccccc1F (configuration not stated) | 4236 | -5.2
O=C1N[C@@H](Cc2ccccc2)COC(=O)[C@@H](Cc2ccc(F)cc2)C/C=C\C[C@@H]1CC(=O)N(CCO)Cc1ccccc1 | 2971 | -25.1
COC(=O)C1=C(c2ccc(Cl)c(C(F)(F)F)c2)C[C@@H]2CC[C@H]1N2C(=O)NCC1CC1 | 4099 | -14.9
COc1cc(OC)c2c(-c3cccc(-c4ccc(OC(F)(F)F)cc4)c3)cc(=O)oc2c1 | 3673 | -28.1
O=C(NN1CCCCCC1)c1ccccc1F | 3633 | -32.7
CCCCN1C[C@H](CO)Oc2cccc(F)c2S1(=O)=O | 2816 | -10.0
O=C1OC[C@H]2CCCN2C(=O)[C@@H](CC(=O)N(CCO)Cc2ccccc2)C/C=C\CC[C@@H]1Cc1ccc(F)cc1 | 3053 | -35.0
O=C1NC[C@@H](c2ccccc2)OC(=O)[C@H](Cc2ccc(F)cc2)C/C=C\C[C@@H]1CC(=O)N(CCO)Cc1ccccc1 | 2848 | -1.9
C=CCC[C@H](Cc1ccc(F)cc1)C(=O)OC[C@@H](C)NC(=O)[C@@H](CC=C)CC(=O)N[C@H](CO)Cc1ccccc1 | 2913 | 3.4
O=C1N[C@@H](Cc2ccccc2)COC(=O)[C@@H](Cc2ccc(F)cc2)CC/C=C/C[C@@H]1CC(=O)N(CCO)Cc1ccccc1 | 2791 | 38.8
